YopH inh: YopH tyrosine phosphatase inhibitors, primary screen, biochemical, fluorescence Ex485/Em525; YopH tyrosine phosphatase [Yersinia enterocolitica]; inhibition, %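 (about 10 µM by stock and volumes)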; hit rate 0.16% among 140,000; AID 898, 2007;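 active = inhibition of 50% or more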;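 also: controls were vehicle for no effect and minimum signal wells for full effect; inactives centre near -20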
Mtb betalactam: beta-lactam sensitization of Mtb H37Rv, H37Rv; M. tuberculosis H37Rv growth with meropenem, percent inhibition; hits of this screen are not shown here; inhibition, % at 25 µM; hit rate 0.27% among 330,000;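 active = about 74% or more and at least 40 points above the plate without the antibiotic, then above 30% in a dose series; inconclusive = first-round hits that could not be retested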;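 also: growth measured after seven days incubation then overnight dye step; 0% = bacteria only wells and 100% = bacteria with antibiotic; twin plates without the antibiotic show which effects depend on it; some results filed as inactive read as strong as hits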
RecA splice inh: Mtb RecA intein splicing inhibitors, primary screen, biochemical, fluorescence, HTS | cell-free RecA intein splicing | inhibition, %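 (about 9 µM by stock and volumes)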 | hit rate 0.75% among 290,000 | AID 2221, 2009; in the data active = inhibition above about 30%; inconclusive = no clear call, values can overlap the other calls;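 also: 0% = vehicle wells and 100% = reference inhibitor control wells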
Target sequence (P9WHJ3 whole entry, looked up, canonical isoform): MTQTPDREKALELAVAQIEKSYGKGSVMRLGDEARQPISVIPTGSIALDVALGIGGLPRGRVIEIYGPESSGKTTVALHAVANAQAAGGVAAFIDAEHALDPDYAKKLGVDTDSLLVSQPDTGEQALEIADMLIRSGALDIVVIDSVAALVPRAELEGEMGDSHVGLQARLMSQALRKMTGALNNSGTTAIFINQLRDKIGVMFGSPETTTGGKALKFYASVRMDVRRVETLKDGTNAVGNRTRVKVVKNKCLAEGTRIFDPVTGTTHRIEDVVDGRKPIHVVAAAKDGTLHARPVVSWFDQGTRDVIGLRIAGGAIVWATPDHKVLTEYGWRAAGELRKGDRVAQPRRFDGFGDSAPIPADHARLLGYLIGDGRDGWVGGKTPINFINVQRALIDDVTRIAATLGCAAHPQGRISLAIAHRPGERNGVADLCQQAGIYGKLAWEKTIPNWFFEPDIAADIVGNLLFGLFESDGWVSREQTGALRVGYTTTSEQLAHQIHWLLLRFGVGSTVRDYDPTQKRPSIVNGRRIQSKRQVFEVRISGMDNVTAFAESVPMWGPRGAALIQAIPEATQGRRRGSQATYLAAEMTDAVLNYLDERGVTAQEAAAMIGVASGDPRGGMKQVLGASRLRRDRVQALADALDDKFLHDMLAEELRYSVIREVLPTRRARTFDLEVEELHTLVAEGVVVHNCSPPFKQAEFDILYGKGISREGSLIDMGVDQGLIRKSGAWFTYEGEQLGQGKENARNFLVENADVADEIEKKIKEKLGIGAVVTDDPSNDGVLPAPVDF
Arbovirus inh: antivirals against arbovirus infection, primary screen, cell-based, full library, 10K replicate subset; hit rate 0.37% among 200,000; inhibition, % at 10 µM; arbovirus infection cell-based antiviral screen;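 active = inhibition from about 30%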;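 also: bluetongue infection of BSR cells; cell survival read as ATP light after 72 h; 0% = infected wells without compound and 100% = uninfected wells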
Mtb H37Rv: M. tuberculosis H37Rv growth inhibitors, H37Rv strain (AID 1626). M. tuberculosis H37Rv growth inhibition; higher % means a stronger effect. inhibition, % at 10 µM; hits with a dose series show IC50 in µM. hit rate 0.95% among 220,000;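 active = confirmed in a dose series; inconclusive = inhibition above 80% but not taken into the dose series; inactive = below 80% or under 30% at every dose of the series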;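 also: bacteria incubated seven days before Alamar blue readout; 0% = bacteria only wells and 100% = bacteria with antibiotic wells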
Arbovirus inh repeat: second read-out of Arbovirus inh, no call of its own (marks repeat the call); inhibition, %; measured here: 10K subset replicate screen; many hits read low in the repeat;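 first of two repeat runs on a subset; 0% = infected and 100% = uninfected wells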
An asterisk follows results filed as active; ? = inconclusive; nt = not tested or not shown. These rows are one share of the data, so the mix of outcomes need not match the whole.

SMILES	YopH inh	Mtb betalactam	RecA splice inh	Arbovirus inh	Mtb H37Rv	others
Cc1ccccc1C(=O)Nc1nnc(SCC(=O)NCc2ccco2)s1	nt	?	-1.3	nt	nt
CCCC[C@@H]1CNC(=S)N1CC1CCCCC1	nt	-9	0.3	nt	5%
O=c1[nH]c(CN2CCN(c3ccccc3)CC2)nc2ccccc12	9	-12	-1.4	9	-2%
COC(=O)CSc1nc(-c2ccc(C)cc2)c2c(c1C#N)CCCC2	-16	85	-1.4	-7	72%
OCCC1CN(Cc2cccn2-c2cccnc2)CCN1C1CCCCC1 (stereo not drawn)	nt	0	-2.5	9	-6%
CCOC(=O)CC(NC(=O)c1cccs1)c1ccc(OCC)cc1 (stereo not drawn)	6	-4	-0.3	7	7%
CCCCCCCCCC(=O)N/N=C(\C)c1cccnc1	-11	38	-0.4	7	6%
COc1cc(-c2cccs2)cc(=O)c2c(C)oc(C)c12	-4	13	2.4	-20	3%
O=C(Cn1cnnn1)Nc1ccccc1Cc1ccccc1	-19	2	1.3	2	-5%
NS(=O)(=O)c1ccccc1	nt	1	-0.4	nt	nt
CSc1nc(C)c2cc(C)oc2n1	-20	1	-9.5	-1	-3%
O=C(C1CC2C=CC1C2)N1CCN(c2ccccc2)CC1 (stereo not drawn)	nt	-2	-1.2	-5	0%
Cc1ccc(-c2nnc(Nc3ccc(C(=O)N(C)C)cc3)c3ccccc23)cc1S(=O)(=O)NCC1CCCO1 (stereo not drawn)	-30	2	-1.3	-13	-8%
CC(C)C(NC(=O)c1ccccc1)C(=O)NCC(c1ccccc1)N(C)C (stereo not drawn)	nt	4	-0.8	1	-1%
CC1(C)CC(n2c(=S)[nH]c3ccccc3c2=O)CCO1 (stereo not drawn)	-38	-12	0.8	3	nt
CCCCN(CCCNC(=O)C1CCN(S(=O)(=O)CC)CC1)c1ccccc1	-24	-8	nt	8	4%
Cn1nnnc1NC(=O)c1ccccc1Cl	nt	-6	-1.8	nt	nt
O=[N+]([O-])c1ccc(OCCN2CCNCC2)cc1	nt	-2	-0.4	0	-2%
CCOc1ccccc1NC(=O)CCSc1nc2n[nH]c(C)c2c(=N)n1-c1ccccc1Cl	-42	86	nt	-5	-5%
COc1ccc(-c2ccoc2)cc1[C@H]1[C@H]2C=CC[C@@H](C)[C@@H]2C(=O)N1Cc1ccccc1	nt	-5	21	nt	-4%
N/C(=C/C(=O)c1ccccc1O)C(F)(F)F	-2	-6	-4.1	-3	-1%
Cc1ccc(NC(=O)Cn2nc(C)c([N+](=O)[O-])c2C)cc1C	nt	11	-0.9	1	-1%
CCOC(=O)N1CCC(N2C(=O)c3ccc(C(=O)NCCOC)cc3C2=O)CC1	nt	0	-0.6	nt	nt
O=C(O)CSc1nnc(SCc2cccc3ccccc23)s1	-13	-4	-0.3	12	-12%
O=S(=O)(NCCc1nnc2ccc(SCc3cccnc3)nn12)c1ccccc1	nt	0	0.4	2	6%
CC(=O)Nc1c(-c2ccccc2)c2cc(Br)ccc2[nH]c1=O	nt	-4	6.2	nt	nt
COC(=O)c1c(NC(=O)CN(c2ccccc2)S(C)(=O)=O)sc2c1CCCC2	-15	7	8.5	-11	15%
Cc1c(Cl)cccc1NC(=O)CCCN1C(=O)c2cccnc2C1=O	nt	-7	1.3	4	1%
N#C/C(=N\Nc1cccc(F)c1)C(=O)C1CC1	nt	-6	2.2	nt	-10%
CCn1ccnc1CN(C)Cc1nc(CCC(C)C)no1	nt	2	-1.3	-6	-8%
COc1cc(C2C(C#N)=C(N)OC3=C2C(=O)CC(C)(C)C3)cc([N+](=O)[O-])c1O (stereo not drawn)	nt	3	-0.7	nt	2%
Cc1ccc(SCC(=O)Nc2ccc(N3CCN(C)CC3)c(F)c2)c(C)c1	nt	5	0.1	8	7%
COc1cc2c(cc1OC)C(C)N(C(=O)CCc1c[nH]c3ccccc13)CC2 (stereo not drawn)	nt	-4	-3.0	nt	nt
CC(NC(=O)Cc1ccc(F)cc1)C(c1cccs1)N1CCN(C)CC1 (stereo not drawn)	-27	-10	1.4	18	-12%
Cc1cccc(N=C2NN=C(c3c(C)[nH]c4ccccc34)CS2)c1	-14	47	1.4	-34	10µM*
CCOc1nc(NC(=O)NC(=O)c2ccccc2)nc(-c2ccccc2)n1	-13	6	-5.4	2	6%
O=C(COc1ccc2c(-c3ccccc3)cc(=O)oc2c1)Nc1ccc(CCO)cc1	nt	2	0.6	nt	nt
O=c1[nH]c(COc2ccc(Cl)cc2Br)nc2ccccc12	nt	4	-0.7	nt	nt
CC(=NCc1ccco1)c1c(C)[nH]n(-c2nc3ccccc3s2)c1=O	-79	4	1.2	-9	-10%
C/C(=N/OCC(=O)Nc1ccccc1)c1cccs1	2	-6	1.2	0	4%
c1sc2[n+](c1C13CC4CC(CC(C4)C1)C3)CCS2	-28	-6	-3.5	4	0%
CCc1cccc(NC(=O)COc2ccccc2)c1	-33	89	4.1	-5	9%
CCCCC1=CC2=CC(=O)C(C)(OC(=O)CC)C(=O)C2=CN1CCCOC(C)C (stereo not drawn)	nt	-1	-8.6	nt	-10%
Cc1ccccc1C(=O)NC1CCN(CC(=O)Nc2ccc3c(c2)OCCO3)CC1	nt	-4	-0.9	-1	-3%
COc1cccc(C(=O)CSc2nnnn2C2CCCCC2)c1	-29	3	5.2	5	-2%

Brought forward from above: 3 entries, then new ones.
SMILES	YopH inh	Mtb betalactam	RecA splice inh	Arbovirus inh	Mtb H37Rv	others
CCCCC1=CC2=CC(=O)C(C)(OC(=O)CC)C(=O)C2=CN1CCCOC(C)C (stereo not drawn)	nt	-1	-8.6	nt	-10%
Cc1ccccc1C(=O)NC1CCN(CC(=O)Nc2ccc3c(c2)OCCO3)CC1	nt	-4	-0.9	-1	-3%
COc1cccc(C(=O)CSc2nnnn2C2CCCCC2)c1	-29	3	5.2	5	-2%
CC(C)(C(=O)c1ccccc1)/[N+]([O-])=C/c1ccccc1	-31	-2	-4.9	nt	-6%
Cc1nc(N2CCOCC2)c2c(C)c(C(=O)Nc3ccc(F)cc3F)sc2n1	nt	-4	-0.6	1	-2%
COc1ccc(C(=O)CN2C(=O)NC3(CCc4ccccc43)C2=O)cc1 (stereo not drawn)	nt	3	-0.7	nt	nt
CCOC(=O)Nc1cc(OC)c(OC)cc1Cc1nccc2cc(OC)c(OC)cc12	5	-6	1.9	1	-10%
O=C(c1ccccc1-c1nc(-c2ccccc2)no1)N1CCOCC1	-2	-5	-1.2	-2	-9%
C/C=C(\C)C(=O)N[C@@H](c1ccccc1)[C@@H](O)C(=O)O[C@H]1C[C@@]2(O)[C@@H](OC(=O)c3ccccc3)C3[C@](C)(C(=O)[C@H](OC(C)=O)C(=C1C)C2(C)C)[C@H](O)C[C@H]1OC[C@@]31OC(C)=O (stereo partly drawn)	nt	-4	8.3	nt	nt
CCC(Sc1ccc(Cl)cc1)C(=O)Nc1nnc(-c2cccc([N+](=O)[O-])c2)s1 (stereo not drawn)	-34	-6	-2.6	-2	2%
CCC(O)(CCN1CCCCC1)c1ccccc1 (stereo not drawn)	-31	-11	0.9	-4	-14%
CCOc1ccc(C(C)=O)cc1CN1C(=O)NC(C)(C2CC2)C1=O (stereo not drawn)	nt	-3	3.9	-1	3%
CN1CCN(CCCNC(=O)c2ccc(Cn3c(=S)[nH]c4ccc(Br)cc4c3=O)cc2)CC1	nt	99	-7.6	-28	?
COC(=O)c1ccc(C(c2c(N)n(Cc3ccccc3)c(=O)n(C)c2=O)N2CCOCC2)cc1 (stereo not drawn)	-11	-5	1.6	7	-1%
C=CC1=C(C(=O)O)N2C(=O)C(NC(=O)Cc3ccccc3)C2SC1 (stereo not drawn)	-5	-5	4.8	10	-12%
Cc1ccc(C)c(NC(=O)c2c(Cl)nc3ccccn23)c1	nt	13	-0.3	0	70%
COc1ccccc1NC(=O)c1sc2nc(Cc3ccccc3)cc(C(F)(F)F)c2c1N	-17	0	-110	11	-9%
CCCc1n(CC)c2ccccc2[n+]1CC(O)COC1CCCCC1 (stereo not drawn)	nt	-1	-1.3	2	1%
CNC(=O)c1ccsc1NC(=O)c1ccccc1	nt	-8	0.9	-7	2%	Arbovirus inh repeat=5
COc1cc(NC(=O)c2ccc(COCC(F)(F)F)cc2)cc(OC)c1OC	-31	9	0.7	-1	-8%
CC(C)(C)NC(=O)COC(=O)Cc1ccc(Cl)cc1	-15	3	5.6	8	1%
CC(C)c1ccc(OCC(=O)NNC(=S)NC(=O)C2CC2)cc1	nt	3	3.1	nt	nt
O=C(Nc1ccccc1)c1cccc(S(=O)(=O)Oc2ccc([N+](=O)[O-])cc2)c1	-10	0	-2.8	-7	6%
O=C(N/N=C/c1c[nH]c2ccccc12)c1ccccc1O	nt	4	-3.5	nt	nt
Cc1cccc(-c2n[nH]c(S(C)(=O)=O)c2C#N)c1	nt	-1	-3.0	nt	-5%
CCOC(=O)N1CCC(NC(=O)c2cc(S(=O)(=O)N3CCCC3)cn2C)CC1	1	-6	-1.2	1	-3%
COc1ccc(C)cc1-n1nnnc1SCC(=O)N1CCC(C(=O)Nc2nccs2)CC1	-12	4	5.7	1	-2%
Cc1ccc(CC(CC(=O)O)C(=O)Nc2ccc(Cl)cc2)cc1 (stereo not drawn)	nt	-8	-2.1	nt	nt
COc1ccc(C2=CC(=O)CC(c3ccc(F)cc3)C2)cc1 (stereo not drawn)	nt	64	4.0	nt	9%
O=C(CN1CCCCC1)NCCNC(=O)CN1CCCCC1	-24	-4	0.8	11	-8%
Cc1ccc(C)c(NC(=S)NNC(=S)Nc2ccc(C(C)C)cc2)c1	nt	-1	2.4	-12	9%
Cc1nc2c(nnn2Cc2ccccc2Cl)c(=O)[nH]1	nt	3	2.1	nt	nt
CCOc1ccc(C(=O)N(CN2CCCC2=O)c2ccc(C)cc2)cc1	11	-3	0.3	9	-8%
CC(/C=N/NC(=O)c1ccc(Cn2cc([N+](=O)[O-])cn2)o1)=C\c1ccccc1	nt	3	1.4	nt	nt
CCC(=O)N1CCc2cc(S(=O)(=O)NCCC(=O)NCc3ccccc3Cl)ccc21	nt	2	-1.5	nt	nt
O=C(CN1C2=NCCCN2c2ccccc21)c1ccc(Br)s1	-1	-2	0.9	-4	-12%
Cn1c(=O)[nH]c(=O)c2c1nc(CN1CCN(c3ccccc3F)CC1)n2CCc1ccccc1	nt	12	1.6	nt	9%
COC(=O)c1ccc(N2CCCCC2)c(NS(=O)(=O)c2ccc(C)cc2)c1	6	8	20	-18	12%
Cc1ccc(NC(=O)CN2C(=O)CN=C(c3ccccc3)c3cc(Cl)ccc32)cc1	1	-7	10	-26	5%
O=C(CSc1nc2ccccc2s1)c1cc2ccccc2o1	-21	72	-3.2	12	6%
CCOc1ccc(C2NC(=O)NC(C)=C2C(=O)OCc2ccccc2)cc1 (stereo not drawn)	nt	3	-0.2	nt	nt
CCN(C(=O)CCN1C(=O)c2ccccc2C1=O)C1CCCCC1	-9	10	2.9	7	-2%
COC(=O)C(C)Oc1ccc(Cc2ncc(C(F)(F)F)cc2Cl)cc1 (stereo not drawn)	nt	99	3.5	nt	nt
Clc1ccc(-c2nnc(-c3ccccc3)c(-c3c[nH]c4ccccc34)n2)cc1	nt	-3	-1.2	nt	nt
CCC1(CC)C(=O)N(Cc2ccccc2)C(=O)N(Cc2ccccc2)C1=O	-17	3	-0.9	2	-15%
CCCCC(=O)NNC(=S)NC(=O)c1ccc(C)cc1	nt	86	-2.0	-34	?
CCCCNC(=O)CSc1nc2ccc(C)cc2[nH]1	nt	0	4.4	1	-7%

Compounds shown so far that contain a furan ring, fused or not (7):
SMILES	YopH inh	Mtb betalactam	RecA splice inh	Arbovirus inh	Mtb H37Rv	others
Cc1ccccc1C(=O)Nc1nnc(SCC(=O)NCc2ccco2)s1	nt	?	-1.3	nt	nt
COc1cc(-c2cccs2)cc(=O)c2c(C)oc(C)c12	-4	13	2.4	-20	3%
CSc1nc(C)c2cc(C)oc2n1	-20	1	-9.5	-1	-3%
COc1ccc(-c2ccoc2)cc1[C@H]1[C@H]2C=CC[C@@H](C)[C@@H]2C(=O)N1Cc1ccccc1	nt	-5	21	nt	-4%
CC(=NCc1ccco1)c1c(C)[nH]n(-c2nc3ccccc3s2)c1=O	-79	4	1.2	-9	-10%
CC(/C=N/NC(=O)c1ccc(Cn2cc([N+](=O)[O-])cn2)o1)=C\c1ccccc1	nt	3	1.4	nt	nt
O=C(CSc1nc2ccccc2s1)c1cc2ccccc2o1	-21	72	-3.2	12	6%

Screening results deposited in PubChem BioAssay by several laboratories.
